# NPYLR7 agonist: activates Aedes aegypti NPYLR7 receptor; HEK293T NPYLR7/Galpha15, GCaMP6s calcium fluorescence; activation, % at 10 µM; 0.15% of 270,000 active; AID 1259423; in the data active = activation above about 40%;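 also: 0% = vehicle and 100% = reference agonist at the receptor; some compounds past the cut are filed as inactive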
# NPYLR7 agonist max-min: recorded beside NPYLR7 agonist, whose call it bears; activation, %; measured here: Max-Min RFU normalised activation; some inactives read as strong as hits;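 span of the calcium signal over five minutes; 0% = vehicle and 100% = native peptide agonist; compound fluorescence can raise it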
# * hit, by the source's call; & = joins results of further samples. Some of the compounds tested. The share of hits here may be higher or lower than overall.
smiles | NPYLR7 agonist | NPYLR7 agonist max-min
COCC(=O)Nc1cc(C(=O)N2CCC(c3ccccc3F)C2)cc2nc(-c3cccnc3)n(C)c12 (stereo unspecified) | 21.9 | 11.1
Cc1cc(C)c(C#N)c(SCc2cc(C)on2)n1 | 11.6 | 11.5
O=C(Cn1cnc2c(nnn2Cc2ccc(Cl)cc2)c1=O)N1CCCC1 | 8.8 | 11.3
Cc1cc2c(=O)n(C)c(SCC(=O)Nc3ccc(O)cc3)nc2s1 | -5.8 | -9.7
CN(CCc1cnn(C)c1)C(=O)c1cn(CC2COc3ccccc3O2)nn1 (stereo unspecified) | 12.2 | -3.9
Cc1cc(C)cc(NC(=O)Cn2c(-c3nnc(C(C)C)o3)cc3ccccc32)c1 | -5.7 | -6.1
CCN(Cc1nccn1C)C(=O)CC1C(=O)NCCN1Cc1cccs1 (stereo unspecified) | 2.8 | 2.8
COc1ccc(-c2cnc3ncnn3c2NCCc2cccc(OC)c2)cc1 | -4.9 | -7.5
Cc1ccc(NC(=O)CSc2nc(Cl)cc(N3CCN(C(=O)c4ccc(Cl)cc4)C(C)C3)n2)cc1 (stereo unspecified) | 27.4 | 29.6
CCOC(=O)c1c(NC(=O)C=Cc2cc(OC)c(OC)c(OC)c2)sc(C(=O)N(C)C)c1C | -0.6 | 20.2
c1ccc(-c2ccccc2NCc2nnnn2C2CC2)cc1 | -6.0 | -2.8
CC(=O)[C@@]1(O)CCC2C3C=C(Cl)C4=CC(=O)[C@@H]5CC5[C@]4(C)C3CC[C@@]21C (stereo partly specified) | -4.8 | -20.3
O=C(c1cc(-c2ccc(O)cc2)n[nH]1)N1CCC(c2ccncc2)CC1 | -0.4 | -1.5
COC(=O)C1CCCc2c1ccn2C(=O)OC(C)(C)C (stereo unspecified) | 18.0 | 7.8
COc1ccc(N2C(=O)CC(Sc3ncccc3C(=O)O)C2=O)cc1 (stereo unspecified) | 3.5 | 8.7
CC(C)c1ccc(NC(=O)c2cccc(N)n2)cc1 | 3.7 | 2.1
O=S(=O)(Cc1ccccc1F)c1oc(-c2ccc(F)cc2)nc1S(=O)(=O)c1ccccc1 | 5.6 | 2.0
Cc1ccc2[nH]c(CN3CCC(C(=O)NCc4ccco4)CC3)nc2c1C | 28.6 | 17.6
N#CC=CN1CCc2ccccc2C1 | 0.9 | 5.8
CCCCCCCCCCOc1ccc(C2=N/C(=C\C=C\c3ccccc3OC)C(=O)O2)cc1 | -1.2 | -6.6
O=C(C1CCCN1S(=O)(=O)c1cccs1)N(Cc1ccccn1)c1nc2ccccc2s1 (stereo unspecified) | 17.3 | 16.9
CCOC(=O)C1(Cc2cccc(Cl)c2)CCCN(C(=O)C(C)(C)C)C1 (stereo unspecified) | 5.0 | 1.7
CSc1nc2c(c(=O)[nH]1)C(c1cccs1)C1C(=O)CCCC1=N2 (stereo unspecified) | -1.1 | -0.6
Cc1cccc(CN2CCN(c3ccc(Cl)cc3)C(=O)C2C)c1 (stereo unspecified) | -0.7 | 6.8
O=C(/C=C/c1ccc(OC(F)(F)F)cc1)N[C@H](Cc1ccccc1)C(=O)N1CCC(C(=O)N2CCCCC2)CC1 | 30.1 | 35.1
Cc1ccc(C)c(OC(C)C(=O)NCCc2nc(-c3cccnc3)no2)c1 (stereo unspecified) | 4.9 | -7.9
CNC(=O)c1ccc(C)c(NC(=O)C2=C(c3ccccc3)N3CCS(=O)(=O)N=C3S2)c1 | 5.6 | 1.6
O=C(COC1CCCC1)Nc1ccc(-c2cn3c(n2)CCCC3)cc1 | -1.8 | -0.5
Cc1ccc(C2=NN(C(=O)CN3CCCC3)C(c3ccc4c(c3)OCO4)C2)cc1 (stereo unspecified) | -4.2 | 4.2
NC(N)=Nc1nc2cc(Cl)ccc2o1 | 0.2 | -2.4
COC(=O)C1CCN(C(c2cccs2)C2Sc3nc(C)nn3C2=O)CC1 (stereo unspecified) | 2.4 | -1.4
c1ccc(-c2nc(-n3ccnc3)nc(-n3ccnc3)n2)cc1 | -1.6 | -4.6
O=C(NCc1nc2ccccc2n1CC(=O)N1CCCCC1)c1ccco1 | 2.0 | 2.6
CC(C)CC(=O)Nc1ccc(C(=O)COc2ccc(F)cc2)cc1 | -2.6 | -4.1
COc1cc(C=C2C(=O)NC(=S)NC2=O)ccc1OCCOc1ccccc1 | -7.1 | -12.8
O=C(Nc1ccc(I)cc1)c1cn(-c2ccccc2)nc1-c1ccncc1 | 0.9 | -1.7
COc1ccc(CNCc2cnc(SC)nc2N2CCc3ccccc3C2)cc1 | 12.9 | 15.1
O=C(CN(CC(F)(F)F)C1CCC1)NC(=O)Nc1ccc2c(c1)OCO2 | -0.7 | 53.6
O=c1[nH]nc(C2CCCN(S(=O)(=O)N3CCCC3)C2)n1-c1ccccc1 (stereo unspecified) | 13.1 | 2.9
CC1=NC2=C(C(=O)CCC2)C(c2cccnc2)C1C(=O)OC1CCCCC1 (stereo unspecified) | 14.2 | 8.7
CCN(CC)c1cc(COC)nc(SCc2cccc(C(=O)Nc3ccc(F)cc3)c2)n1 | 4.3 | 20.2
Cc1cc(N)nc(SCc2cccc([N+](=O)[O-])c2)n1 | 4.3 | 0.3
COc1ccccc1N=Nc1c(O)ccc2ccccc12 | 2.2 | 1.7
O=C(c1ncc[nH]1)N1CCOC(COc2cccc(C(F)(F)F)c2)C1 (stereo unspecified) | 25.6 | 27.0
CN(C)C1CCCN(C(=O)NCCNc2cccc(F)c2C#N)C1 (stereo unspecified) | 1.0 | -0.5
O=C(NCCc1ccc(Cl)cc1Cl)c1cc2n(n1)CCN(CC1CC1)C2=O | 9.7 | 5.4
O=C(c1ccc2c(c1)OCO2)C1CCCN(C(=O)c2ccccc2-c2ncc[nH]2)C1 (stereo unspecified) | -0.2&14.4 | 0.2&8.1
CCc1ccc(Sc2c(F)c3c(c(F)c2Sc2ccc(CC)cc2)C(=O)c2ccccc2C3=O)cc1 | -4.8 | -11.7
Cc1cc(NC(=O)COC(=O)c2cccc3ccccc23)no1 | 4.3 | 5.5
CCc1nnc(SCC(=O)N2CCN(C)C3(CCN(C)CC3)C2)o1 | 12.1 | 10.8

# Later entries.
smiles | NPYLR7 agonist | NPYLR7 agonist max-min
O=C(NC1CCCC1)c1ccccc1NS(=O)(=O)c1ccc(F)c(F)c1F | 2.1 | 8.5
CCOC(=O)c1nn(-c2ccc(C)c(C)c2)cc1O | 0.0 | -5.4
CNc1nc2cnc(Nc3ccccn3)cc2n1-c1cc(OC)c(OC)c(OC)c1 | 7.2 | -3.2
CN1CCN(NC(=O)CCN2C(=O)/C(=C\c3ccccc3)SC2=S)CC1 | -7.5 | -13.7
COc1ccccc1OCCN1CCC(C(=O)NC(c2ccccc2)c2cnccn2)CC1 (stereo unspecified) | 1.9 | 6.8
Cc1cc(C(=O)N(Cc2ccccc2)[C@H]2C[C@H]3CCOC[C@@]3(c3ccccc3)C2)no1 | 4.3 | 14.6
O=C(c1ccccc1Cl)N1CCC(c2n[nH]c(Cc3ccccc3)n2)CC1 | -5.5 | -8.0
CNC(=O)[C@@]1(OCc2cccc(C(F)(F)F)c2)CC(OCc2c(F)cccc2F)[C@@H]2OC(C)(C)O[C@@H]2C1 (stereo partly specified) | 4.7 | 9.3
NC(=O)COC(=O)c1ccc(Br)o1 | 19.6 | 14.7
NC1=NC2(CCSCC2)n2c(nc3ccccc32)N1 | -1.1&6.9 | -1.9&5.7
CNC(=O)c1cccc(C(=O)N(CC(F)(F)F)C2CCCC2)c1 | -22.7 | -25.0
COc1ccc(-n2cc(-c3ccccc3)c3c(=S)nc[nH]c32)cc1 | -10.4 | -14.7
O=C(CC1Oc2ccccc2NC1=O)NC1CCCc2ccccc21 (stereo unspecified) | -25.4 | -26.3
NC(N)=NC(=O)c1nc(Cl)c(N2CCCCCC2)nc1N | 5.5 | -9.7
Cc1c(CN2CCOc3ccc(C4=CCCCC4)cc3C2)c(=O)n(-c2ccccc2)n1C | 6.0 | 7.5
C=CCN1CC(C(=O)N(CC)Cc2cc(Cl)ccc2OC)CCC1=O (stereo unspecified) | -8.9 | -16.9
CC(NC(=O)c1cccs1)c1cc2c(cc1Br)OCCCO2 (stereo unspecified) | -6.4 | 18.1
Cc1ccc(CN(Cc2cnn(C)c2)CC(C)C)n1-c1cccnc1 | 1.9 | 5.7
c1coc(CNc2nc(C34CC5CC(CC(C5)C3)C4)cs2)c1 | -2.6&-2.2 | -3.0&-1.5
CC1CCC2(CC1)NC(=O)N(NC(=O)c1cc3c(s1)CCC(C)C3)C2=O (stereo unspecified) | -4.9 | -5.6
COc1cc(OC)c(-c2nc3cnccc3n2C)cc1OC | 16.1 | 10.6
C=CCn1c(=O)c2c(nc3n2CC(C)CN3c2ccccc2OC)n(C)c1=O (stereo unspecified) | 7.2 | 6.0
CCOc1ccc(-c2nc3ccc(Br)cn3c2NC(C)(C)C)cc1 | -3.6 | 2.3
COCCn1c(O)c(C=Nc2cnccn2)c(=O)[nH]c1=S | 2.5 | -0.5
Cc1ccc2[nH]c(=O)cc(C(=O)N3CCCC4(CCN(C)C4)C3)c2c1 (stereo unspecified) | -0.6 | 3.0

# Among those listed so far, three have a cyano group:
smiles | NPYLR7 agonist | NPYLR7 agonist max-min
Cc1cc(C)c(C#N)c(SCc2cc(C)on2)n1 | 11.6 | 11.5
N#CC=CN1CCc2ccccc2C1 | 0.9 | 5.8
CN(C)C1CCCN(C(=O)NCCNc2cccc(F)c2C#N)C1 (stereo unspecified) | 1.0 | -0.5

# Returning to the listing with the 2 entries that preceded the break.
smiles | NPYLR7 agonist | NPYLR7 agonist max-min
COCCn1c(O)c(C=Nc2cnccn2)c(=O)[nH]c1=S | 2.5 | -0.5
Cc1ccc2[nH]c(=O)cc(C(=O)N3CCCC4(CCN(C)C4)C3)c2c1 (stereo unspecified) | -0.6 | 3.0
CN(CCc1ccccn1)C(=S)NCCc1ccccc1 | -0.7 | -1.5
CCC(CC)C(=O)N(Cc1cc(NC(=O)c2ccccc2Cl)ccc1N(C)C)C(C)c1ccccc1 (stereo unspecified) | 23.7 | 42.0
CNS(=O)(=O)c1c(C)noc1C | 1.3 | -1.4
CCSc1ccc(NC(=O)C(C)C)nn1 | 2.2 | -0.5
CCOC(=O)N1CCN(C2CCCN(C(=O)CCc3c(C)noc3C)C2)CC1 (stereo unspecified) | -2.1 | -5.4
Brc1ccccc1CN1CCC(Cc2ccc3c(c2)OCO3)CC1 | 2.3 | 4.0
Cc1ccc(C2c3ccccc3CCN2C(=O)c2cc(C(F)(F)F)cc(C(F)(F)F)c2)cc1 (stereo unspecified) | 22.2 | 10.3
CC(C)c1nccn1CCOc1ccccc1 | 12.3 | -0.4
CCSc1nc2c([nH]c3ccccc32)c(=O)n1C | 0.6 | 9.3
CCC(COC)NC(=O)c1cnc2c(-c3cccs3)cnn2c1C (stereo unspecified) | 15.3 | 1.3
O=S(=O)(Nc1ccc2ccccc2c1)c1ccccc1Br | 0.7 | 8.3
COC(=O)Cn1c(CN2CCN(c3ccccc3)CC2)nc2c1c(=O)n(C)c(=O)n2C | 0.7 | 15.2
CNCC#CCOc1cc(C)cc(C)c1C | -7.7 | -15.8
COCCn1c(=O)[nH]c(=O)c2c3c(cnc21)C(=O)CC(c1ccco1)C3 (stereo unspecified) | 1.9 | 29.2
O=C(NCCO)C(F)(F)C(F)(F)C(F)(F)OC(F)(C(=O)NCCO)C(F)(F)F (stereo unspecified) | -1.9 | -3.4
Cc1cccnc1CC(C)N(C)C(=O)c1cc(-c2ccccc2)on1 (stereo unspecified) | -0.2 | -7.3
Cc1occc1C(=O)N1CCC(n2cnc3cc(C(F)(F)F)ccc32)CC1 | -7.2 | -12.0
COc1ccc(C(=O)Nc2ccccc2)cc1S(N)(=O)=O | -4.8 | -10.0
CCOC(=O)c1nn(-c2ccc(C)cc2)c(=O)cc1OCC(=O)Nc1c(C)cc(C)cc1C | 8.1 | 4.8
CC/C=C(\C)CN1CCC(CNC(=O)c2cccn(C)c2=O)C1 (stereo unspecified) | 4.5 | 4.5
CCN(CC)C(=O)c1cncn1-c1ccc(-c2cc(C)cc(C)c2)cc1 | 3.9 | 3.5
O=C1c2ccccc2C(=O)N1c1ccc(-n2nncc2-c2ccc(Cl)cc2)cc1 | -0.9 | 1.5
CC(C)c1ccc(NS(=O)(=O)c2cn(C)c(=O)n(C)c2=O)cc1 | -2.2 | -3.2
Cc1ccc2c(c1)c(CNC(=O)Cc1c(C)nc3ccccn13)nn2C | 7.1 | 1.9
CC(C(=O)N1CCCC1)N1CCOC(CN(C)C)C1 (stereo unspecified) | 8.0 | 5.9

# One compound at a time, from the list above. Order of screens: NPYLR7 agonist | NPYLR7 agonist max-min
# COCCn1c(=O)[nH]c(=O)c2c3c(cnc21)C(=O)CC(c1ccco1)C3 (stereo unspecified) reads 1.9 | 29.2
# CCOC(=O)N1CCN(C2CCCN(C(=O)CCc3c(C)noc3C)C2)CC1 (stereo unspecified) reads -2.1 | -5.4
# CCSc1ccc(NC(=O)C(C)C)nn1 reads 2.2 | -0.5
# CCC(CC)C(=O)N(Cc1cc(NC(=O)c2ccccc2Cl)ccc1N(C)C)C(C)c1ccccc1 (stereo unspecified) reads 23.7 | 42.0

# New compounds follow:
smiles | NPYLR7 agonist | NPYLR7 agonist max-min
CCSc1nnc2n1CCN2c1ccc(OC)cc1 | 12.3 | 11.1
Cc1cc(=O)oc2cc(OCC(=O)Nc3c(Cl)cc(Cl)cc3Cl)ccc12 | -1.0 | -4.7
Cn1c(=O)n(Cc2ccc(F)cc2)c(=O)c2c1nc1n2CCN1c1ccccc1 | 0.3 | -6.0
CN(C)c1ccc(NC(=O)C2CCCC2)cc1CN(C(=O)c1cccs1)C1CC1 | -4.5 | -0.1
N#CCC(=O)Nc1ccccc1C(=O)OCC(=O)Nc1ccc(F)cc1Cl | 4.8 | 1.6
COc1ccc(CCN(Cc2ccc(C)o2)C(=O)CN(CC2CCCO2)C(=O)c2cccs2)cc1OC (stereo unspecified) | 1.8 | 1.6
O=C(c1nc2sccn2c1CN1CCCCC1c1nccs1)N1CCCCCCC1 (stereo unspecified) | -6.9 | 6.3
